HPGD inh = HPGD (human) dehydrogenase inhibition; P15428; purified HPGD, NADH fluorescence kinetic, PGE2 substrate; Potency, µM, for inactives: at the highest dose activity change, negative = inhibition, most hits filed as inhibitors; actives 4.3% (n = 150,000); AID 894; active = well fitted inhibition curve with a large enough effect (not every such curve was filed as active); inconclusive = small, poorly fitted or top-dose-only effect, or another doubt; inactive = no such curve, though single readings can be large or run the other way;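 further: top concentration of the series not given in the record; plate controls included wells without enzyme; inactives centre near -10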
Target sequence (P15428 whole entry, looked up): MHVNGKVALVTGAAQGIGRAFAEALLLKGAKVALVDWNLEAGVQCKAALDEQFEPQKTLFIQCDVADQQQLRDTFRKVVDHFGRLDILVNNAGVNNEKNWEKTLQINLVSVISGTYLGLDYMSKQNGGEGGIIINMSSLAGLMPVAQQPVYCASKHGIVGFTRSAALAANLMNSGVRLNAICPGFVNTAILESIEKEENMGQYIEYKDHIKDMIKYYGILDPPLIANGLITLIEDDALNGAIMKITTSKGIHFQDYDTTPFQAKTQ
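NADH formation kinetics: reaction with 30 uM PGE2 and 1 mM NAD+ (final), 20 nM enzyme, Tris-HCl pH 8 with Tween 20, after 15 min compound preincubation at room temperature. Fluorescence change, last versus first of five reads.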
* marks the source's active call; other numbers are inactive results; ? = inconclusive. On the % scale 0 is the no-effect control and ±100 the full control effect; potency means the concentration at half of the fitted maximal effect.

compound	HPGD inh
NC(=S)Cc1nc(-c2ccccc2)cs1	-17.1%
COCCNc1c([N+](=O)[O-])c(=O)n(-c2ccccc2)c2ccccc12	-7.4%
CCOc1ncccc1C(=O)OCc1nnc(-c2ccccc2)o1	15.8µM*
Cc1ccc(SCc2nc3ccccc3n2CC(=O)Nc2ccc(Cl)cc2)cc1	-5.8%
CN(C)S(=O)(=O)c1ccc(Cl)c(NC(=O)COC(=O)/C=C/c2ccc(S(=O)(=O)N3CCOCC3)cc2)c1	-10.9%
O=C1c2cccc3cccc(c23)C(=O)N1CC1CCN(S(=O)(=O)c2ccc(F)cc2)CC1	?
Nc1nc(NCC2CCC(CNS(=O)(=O)c3cccc4ccccc34)CC2)nc2ccccc12 (stereo unspecified)	?
Cc1ccc(N2CC(C(=O)Nc3ccccc3C(=O)NC3CCCCC3)CC2=O)cc1 (stereo unspecified)	-1.4%
O=C(c1ccco1)N1CCN(C(c2ccc(Cl)cc2)c2nnnn2CC2CCCO2)CC1 (stereo unspecified)	-6.6%
Cc1ccc(/C=N/NC(=O)c2cccc(S(=O)(=O)Nc3ccccc3Cl)c2)o1	?
C/[N+]([O-])=C1\Cc2ccccc2C1=O	-11.7%
COc1ccc2c(c1)C(c1ccccc1OC)CC(=O)O2 (stereo unspecified)	-8.8%
C[C@@H]1C[C@H]2[C@H]3C[C@@H](F)C4=CC(=O)C=C[C@]4(C)[C@@]3(Cl)[C@@H](O)C[C@@]2(C)[C@@H]1C(=O)COC(=O)C(C)(C)C	-11.8%
O=S(=O)(NC1CCCCC1Nc1ccc(Cl)cc1)c1ccccc1 (stereo unspecified)	-1.8%
CCOc1ccccc1NC(=S)N1CCC(NC(=O)NC23CC4CC(CC(C4)C2)C3)CC1	-6.7%
Cn1cnnc1Sc1nc2c(c(=O)n(C)c(=O)n2C)n1Cc1ccccc1Cl	6.1%
CCc1ccc(Nc2nc(N)nc(CSc3nc4ccccc4s3)n2)cc1	-10.9%
O=[N+]([O-])c1ccccc1/C=N/Nc1nccnc1Cl	-14.3%
O=C(COc1cccc2ccccc12)NNC(=O)CSCCO	-6.0%
CSc1sccc1/C=N/NC(=O)c1ccncc1	-8.2%
O=C1Nc2ccccc2/C1=C/C(=O)c1cccs1	?
CCCCCn1c(SCC2CCCO2)nc2cc(C(=O)N3CCC(C(N)=O)CC3)ccc2c1=O (stereo unspecified)	-5.1%
COc1cc(OC)nc(NC(=O)CCl)n1	-16.6%
COCCNC(=O)c1cnn2c(C(F)(F)F)cc(-c3ccc4c(c3)OCO4)nc12	-22.9%
Cc1cc(C(=O)CSc2nnc(-c3ccco3)o2)c(C)n1Cc1ccco1	-2.9%
CC1=NN(c2ccc(F)cc2)C(=O)C1C(c1cccc(O)c1)c1c(C)[nH]n(-c2ccc(F)cc2)c1=O (stereo unspecified)	17.8µM*
Cc1ccccc1OCCNC(=O)/C=C/c1ccc([N+](=O)[O-])cc1	-19.5%
Cc1ccc(NC(=O)Nc2ccc3oc(C)nc3c2)cc1	-16.3%
Cc1occc1C(=O)Nc1nccs1	-20.2%
O=C(Nc1nnc(-c2ccncc2)s1)C1CCCO1 (stereo unspecified)	?
COc1ccc(OC)c(NC(=O)Cn2c(CCC(=O)O)ccc2-c2ccccc2)c1	-11.0%
CCc1nc(C)ccc1OCC(=O)NCCCN(C)C	-0.4%
CCOC(=O)N1CCN(CC(O)COCc2ccc(OC)c(OC)c2)CC1 (stereo unspecified)	-5.2%
Cc1cnn(C(=S)NCc2ccco2)c1	-21.2%
c1coc(-c2nc3nc4ccccc4nc3n2-c2ccc3c(c2)OCCO3)c1	?
C1CCC2(CC1)OCC1(CO2)COC2(CCCCC2)OC1	1.7%
CCOC(=O)C1CCCN(c2cc(C)nc3cc(-c4ccc(Cl)cc4)nn23)C1 (stereo unspecified)	?
O=C(COc1ccccc1Cl)NC(=S)Nc1ccc(CN2CCOCC2)cc1	25.1µM*
Cc1[nH]c2ccccc2c1/C=C/c1nc2ccccc2c(=O)n1-c1cccc([N+](=O)[O-])c1	-7.9%
CCOC(=O)CSc1nnc(Cc2cc(=O)[nH]c(=O)[nH]2)n1-c1ccc(Cl)cc1	-9.6%
CN(C)C=Nc1ncc2c3ccccc3n(CCN(C)C)c2c1C#N	?
COC(=O)c1ccc(NC(=O)CSC2=NCCN2)cc1	-7.2%
Cc1ccc(-n2nnc3c(SCC(=O)NCC4CCCO4)ncnc32)cc1 (stereo unspecified)	1.26µM*
CC1(C)Cc2nc3sc4c(=O)n(CC(N)=O)cnc4c3cc2CO1	-25.4%
COc1cc(C2C(C#N)=C(N)Oc3c2ccc2ccccc32)ccc1OCC(=O)Nc1ccccc1C (stereo unspecified)	-29.7%
O=C(Nc1ccc2snnc2c1)N1CCOCC1	-14.6%
O=C(Nc1cccc(S(=O)(=O)N2CCCC2)c1)c1ccc2c(=O)n3c(nc2c1)CCCCC3	-6.1%
CS(=O)(=O)NCc1csc(-c2ccccc2)n1	-16.2%
Cc1cc(/C=C(\C#N)C(=O)Nc2ccccc2)c(C)n1-c1cccnc1	-9.9%
CCC(Oc1ccccc1)C(=O)Nc1ccc(-c2nnc(-c3ccco3)o2)cc1 (stereo unspecified)	?

Following part.
compound	HPGD inh
CC(C)(CO)N1CCN(C(=S)Nc2ccccc2)CC1	0.7%
CCOC(=O)COn1c(=O)c(=O)n(OC)c2ccccc21	-16.3%
CCOc1ccc(OCC)c(NC(=O)CSc2nnc(Cn3cnc4ccccc43)n2C)c1	-9.5%
O=C(C1CCC(Cn2c(=S)[nH]c3ccccc3c2=O)CC1)N1CCOCC1 (stereo unspecified)	1.58µM*
CSCCC(NC(=O)c1ccc([N+](=O)[O-])cc1Cl)C(=O)OCC(=O)NC1CCCC(C)C1C (stereo unspecified)	-18.1%
O=C(NCc1ccco1)c1ccccc1-c1nc(-c2ccccc2)no1	-28.2%
Cn1c(=O)c2c(nc(N/N=C/c3cccs3)n2Cc2ccccc2)n(C)c1=O	-17.4%
CCC(C)c1ccccc1NC(=S)Nc1cccnc1 (stereo unspecified)	-15.4%
N#Cc1nc(COc2ccc(Cl)cc2)oc1N1CCCCCC1	?
NCCC[C@@H](CC(=O)N[C@@H]1CCCC[C@H]1C(=O)N[C@H](CC(=O)N[C@@H](CCC(=O)O)CC(=O)O)Cc1ccccc1)NC(=O)C[C@H](Cc1ccccc1)NC(=O)[C@@H]1CNCC[C@H]1N	-9.4%
CN1CC2([N+](=O)[O-])CC=C(OCCO)C([N+](=O)[O-])(C1)C2 (stereo unspecified)	-10.5%
CNc1ncnc2c1ncn2[C@@H]1O[C@H](CO)[C@@H](O)[C@@H]1O	-11.5%
O=C(CCN1C(=O)c2ccccc2C1=O)N1CCOCC1	-5.0%
Cc1cc(C(=O)N2CCN(C(c3ccccc3)c3ccccc3)CC2)on1	-0.4%
CC(=O)[C@H]1CCC2C3CC=C4C[C@@H](OS(=O)(=O)O)CC[C@]4(C)C3CC[C@@]21C (stereo partly specified)	-9.2%
c1ccc(-c2ncnc3cc4n(c23)CCC4)cc1	?
C=CCNC(=S)NNC(=O)COc1cccc(Cl)c1	-5.6%
COC(=O)Cn1ncc2c3ccccc3n(C)c2c1=O	-17.6%
Cc1nc(Cl)c2c(n1)N(CC(N)=O)C(=O)CO2	-6.3%
O=C1OCCC1Sc1nc2ccccc2c(=O)n1Cc1ccc(F)cc1 (stereo unspecified)	-10.2%
Cc1cc(C)nc(-n2nc(C)cc2NC(=O)c2cccc(S(=O)(=O)N(C)C)c2)n1	-5.2%
CC(=O)c1ccc(NC(=S)N2CCN(CCN3C(=O)c4cccc5cccc(c45)C3=O)CC2)cc1	-6.7%
FC(F)(F)c1cc(CN2CCCC3(CCNCC3)C2)cc(C(F)(F)F)c1	-5.5%
CCOC(=O)c1sc(NC(C)=O)c(C(=O)OCC)c1C	-12.3%
Cc1cc(Cl)c(OCCOCCN2CCC(C)CC2)c(Br)c1	1.8%

Next part.
Structure	HPGD inh
CCOC(=O)c1cnn2c(C)cc(-c3ccccc3)nc12	?
O=C1c2ccccc2S(=O)(=O)N1Cc1nc2ccccc2s1	-12.5%
COc1ccc(CC(=O)OCC(=O)Nc2ncc(Cl)cc2Cl)cc1OC	-6.0%
Cc1cc(C)c2nc(N3CCC(C(=O)N4CCN(C(=O)c5ccco5)CC4)CC3)sc2c1	-14.3%
CCOC(=O)C(Cc1ccccc1)C(=O)Nc1cccc2ccccc12 (stereo unspecified)	-15.0%
CCOc1ccc(Br)cc1S(=O)(=O)Nc1ccc(NC(=O)c2ccccc2F)cc1	-11.8%
O=C(c1ccco1)N1CCN(S(=O)(=O)c2ccc3[nH]c(=O)oc3c2)CC1	-4.8%
COc1ccccc1-c1cc(C(=O)N2CCN(c3ccc(F)cc3)CC2)no1	1.9%
COc1ccc(C(=O)c2cnc3ccccc3c2-c2ccccc2)cc1	?
CC(=O)c1sc(NC(=O)c2ccc(C)cc2)nc1C	-19.6%
COc1ccc(CCn2c(C)cc3c(c2=O)C(c2ccncc2)C(C#N)=C(N)O3)cc1OC (stereo unspecified)	-13.0%
CC(C)n1c(O)c(N=Nc2ccc(Cl)nn2)c2ccccc21	-9.2%
CCc1nc(-c2ccccc2)cc(=O)[nH]1	-6.5%
CCOC(=O)CN1C(=O)S/C(=C/c2ccc(N3CCCCC3)o2)C1=O	-7.7%
Cc1ccc(C(=O)Nc2ccc(Cc3ccncc3)cc2)cc1[N+](=O)[O-]	1.2%

Some of the entries so far, field by field:
O=C(c1ccco1)N1CCN(C(c2ccc(Cl)cc2)c2nnnn2CC2CCCO2)CC1 (stereo unspecified)
  HPGD inh = -6.6%
Cc1ccc(/C=N/NC(=O)c2cccc(S(=O)(=O)Nc3ccccc3Cl)c2)o1
  HPGD inh = ?
C/[N+]([O-])=C1\Cc2ccccc2C1=O
  HPGD inh = -11.7%
COc1ccc2c(c1)C(c1ccccc1OC)CC(=O)O2 (stereo unspecified)
  HPGD inh = -8.8%

Filtered by structure, the compounds so far with two or more sulfur atoms.
Structure	HPGD inh
NC(=S)Cc1nc(-c2ccccc2)cs1	-17.1%
CN(C)S(=O)(=O)c1ccc(Cl)c(NC(=O)COC(=O)/C=C/c2ccc(S(=O)(=O)N3CCOCC3)cc2)c1	-10.9%
CCc1ccc(Nc2nc(N)nc(CSc3nc4ccccc4s3)n2)cc1	-10.9%
CSc1sccc1/C=N/NC(=O)c1ccncc1	-8.2%
CS(=O)(=O)NCc1csc(-c2ccccc2)n1	-16.2%
O=C1c2ccccc2S(=O)(=O)N1Cc1nc2ccccc2s1	-12.5%

Additional compounds
Structure	HPGD inh
CCOC(=O)N1CCC(NC(=O)c2cc(S(=O)(=O)N3CCc4ccccc43)cn2C)CC1	-4.2%
Cn1c(SCC(=O)c2c(N)n(C)c(=O)n(C)c2=O)nnc1-c1ccccc1	-10.2%
COc1ccc(/C=c2\sc3nc(-c4ccccc4)c(-c4ccccc4)n3c2=O)cc1OC	-22.8%
COc1cccc(NC(=O)COC(=O)CNS(=O)(=O)c2c(F)cccc2F)c1	-15.4%
O=C(NC1CCCCC1)C1CCCN(S(=O)(=O)c2cccs2)C1 (stereo unspecified)	-10.0%
COc1ccccc1Nc1nc(N)nc(CN2CCC(Cc3ccccc3)CC2)n1	?
C=C(C)C1CC=C(C)/C(=N/NC(=O)c2ccc(NC(=O)CC)cc2)C1 (stereo unspecified)	-4.6%
Cn1c(=O)c2c(nc(CN3CCN(c4ccccc4)CC3)n2Cc2ccccc2Cl)n(C)c1=O	-10.9%
Cc1ccc(-n2nc3c(c2NC(=O)c2ccc4c(c2)OCO4)CSC3)cc1	-17.0%
CN(C)S(=O)(=O)c1cccc(C(=O)Nc2ccccc2[N+](=O)[O-])c1	39.8µM*
CCOc1ccc(C(=O)Nc2cnn(Cc3ccc(Cl)c(Cl)c3)c2)cc1	0.1%
C=CCNC(=O)c1ccc(CNS(=O)(=O)c2ccc(NC(C)=O)cc2)cc1	20µM*
O=C(NC12CC3CC(CC(C3)C1)C2)N1CCC(n2nnc3ccccc32)CC1	-4.9%
COC(=O)CSc1nnc(NC(=O)/C=C\c2ccc3c(c2)OCO3)s1	?
NC(=O)CN1N=C(c2cc(Cl)sc2Cl)CSC1=O	-12.3%
CCn1c2ccccc2c2nnc(SCC(=O)Nc3c(C)n(C)n(-c4ccccc4)c3=O)nc21	-9.0%
O=C(Cc1ccccc1)Nc1nc2ccccc2s1	0.6%
CCc1nc(SCC(=O)N2c3ccccc3Sc3ccccc32)c2ccccc2n1	-3.5%
Cn1c(=O)c2[nH]c(Nc3ccccc3)nc2n(C)c1=O	-19.9%
C=CCSc1nc(N)c(C#N)c(-c2ccccc2)c1C#N	-12.5%
COc1ccc(-c2nnn(Cc3nc(N)nc(N4CCCCC4)n3)n2)cc1	-15.7%
Cc1ccc(NC(=O)CN(c2ccc3c(c2)OCO3)S(=O)(=O)c2c(C)n[nH]c2C)cc1	-8.7%
COC(=O)c1ccnc(SCC(=O)c2ccccc2)c1	?
O=C(c1ccco1)N(CCCN1CCOCC1)c1nc(-c2ccc(Cl)cc2)cs1	-17.2%
Cc1ccc(S(=O)(=O)NC(CCc2ccccc2)CC(=O)C(C)(C)C)cc1 (stereo unspecified)	-7.2%
CCOc1ccccc1NC(=O)Cn1c(=O)n(CCC(=O)NC2CCCC2)c(=O)c2ccccc21	1.2%

Compound activity as filed in PubChem.

The list is partial, so the mix of outcomes need not match the whole.
